# High-throughput results: PubChem BioAssay, Broad Institute
# ID4 SMM = ID4 (human) binding | P47928 | calls only | hit rate 1.2% among 31,000 | small molecule microarray, Flag-ID4 binding, fluorescence F/B | AID 624137;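 active = spot signal over background at p below 0.07 in all four prints; compounds were printed on slides so no solution concentration is given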;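 also: a binder raises fluorescence above local background on the spot; about 2 pmol printed per array spot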
# Target sequence (P47928 whole entry, looked up): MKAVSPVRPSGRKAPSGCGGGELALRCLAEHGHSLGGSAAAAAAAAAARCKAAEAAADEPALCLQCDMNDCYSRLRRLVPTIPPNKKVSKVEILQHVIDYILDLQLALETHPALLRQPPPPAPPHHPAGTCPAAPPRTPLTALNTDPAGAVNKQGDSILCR
# Calls only; i = inactive; + = active, no number.
no.	Structure	ID4 SMM
1	CCN(CC(=O)Nc1cc(C(F)(F)F)ccc1Cl)S(=O)(=O)c1ccc(C)cc1	i
2	Cc1ccc(NC(=O)CSc2nc3sc4c(c3c(=O)n2-c2ccccc2)CCCC4)c(C)c1	i
3	O=C1SC(c2ccccc2)=N/C1=C/c1ccco1	i
4	O=C(Nc1sc2c(c1C(=O)NCc1ccco1)CCCC2)c1cccs1	i
5	O=C1C(=O)N(Cc2ccc(Cl)c(Cl)c2)c2ccccc21	i
6	C/C=C/c1cnc2c(c1)C(=O)N([C@@H](C)CO)C[C@H](C)[C@H](CN(C)Cc1ccc(F)cc1)O2	i
7	CCc1ccc(-n2c(SCC(=O)Nc3cccc(C)c3)nnc2-c2ccccc2)cc1	i
8	COc1ccc(C)cc1S(=O)(=O)N1CCCC(C(=O)Nc2ccccc2F)C1 (stereo not drawn)	i
9	CS(=O)(=O)N(CC(=O)Nc1ccccc1-c1ccccc1)c1cccc(C(F)(F)F)c1	i
10	O=C(C[C@H]1CC[C@@H](NC(=O)c2cccnc2)[C@H](CO)O1)NCc1ccc(Cl)c(Cl)c1	i
11	CNC[C@@H]1Oc2cc(-c3cncnc3)ccc2S(=O)(=O)N([C@H](C)CO)C[C@H]1C	i
12	O=C(CC1Sc2ccccc2NC1=O)Nc1ccccc1[N+](=O)[O-] (stereo not drawn)	i
13	COc1ccc(OC)c(NC(=O)COc2ccc3c4c(c(=O)oc3c2)CCCC4)c1	i
14	C[C@@H]1CN([C@@H](C)CO)C(=O)c2cc(-c3ccc(F)cc3)cnc2O[C@@H]1CN(C)Cc1ccccn1	i
15	COc1cccc(N2C(=O)C(CC(=O)Nc3ccc(F)cc3)N(C3CCCCC3)C2=O)c1 (stereo not drawn)	i

# An excerpt from above in order of number of heavy atoms, largest number first.
no.	Structure	ID4 SMM
2	Cc1ccc(NC(=O)CSc2nc3sc4c(c3c(=O)n2-c2ccccc2)CCCC4)c(C)c1	i
7	CCc1ccc(-n2c(SCC(=O)Nc3cccc(C)c3)nnc2-c2ccccc2)cc1	i
13	COc1ccc(OC)c(NC(=O)COc2ccc3c4c(c(=O)oc3c2)CCCC4)c1	i
11	CNC[C@@H]1Oc2cc(-c3cncnc3)ccc2S(=O)(=O)N([C@H](C)CO)C[C@H]1C	i
5	O=C1C(=O)N(Cc2ccc(Cl)c(Cl)c2)c2ccccc21	i

# Next part:
no.	Structure	ID4 SMM
16	O=C(C[C@H]1CC[C@H](NC(=O)Cc2ccccn2)[C@H](CO)O1)NCCc1ccccc1	i
17	O=C(C[C@H]1C=C[C@H](NC(=O)CN2CCOCC2)[C@@H](CO)O1)NC1CCCCC1	i
18	CCOC(=O)c1c(NC(=S)Nc2cc(OC)c(Cl)cc2OC)sc(C)c1-c1ccccc1	i
19	C[C@H]1CN([C@@H](C)CO)S(=O)(=O)c2ccc(/C=C/c3ccccc3)cc2O[C@H]1CN(C)C	i
20	C/C=C/c1ccc2c(c1)O[C@@H](CN(C)Cc1ccccc1F)[C@H](C)CN([C@H](C)CO)S2(=O)=O	i
21	COc1c(OC2OC(CO)C(O)C(O)C2O)cc(O)c2c1OC(c1ccccc1)CC2=O (stereo not drawn)	i
22	CSc1nsc(SCc2cnc(C)nc2N)n1	i
23	C[C@@H]1CN([C@H](C)CO)C(=O)c2cc(Br)cnc2O[C@@H]1CN(C)C(=O)c1cccc(F)c1	i
24	C[C@@H]1CN([C@H](C)CO)C(=O)CCCn2cc(nn2)CO[C@@H]1CN(C)CC1CCCC1	i
25	CC(C)C#Cc1cnc2c(c1)C(=O)N([C@@H](C)CO)C[C@H](C)[C@H](CN(C)C(=O)c1cccc(F)c1)O2	i
26	C[C@@H]1CN([C@@H](C)CO)S(=O)(=O)c2ccc(C#CC3CC3)cc2O[C@H]1CN(C)CC1CCOCC1	i
27	O=C(CC1(O)C(=O)Nc2c(C(F)(F)F)cccc21)c1ccco1 (stereo not drawn)	i
28	O=C(N[C@@H]1CC[C@H](CC(=O)N2CCOCC2)O[C@@H]1CO)c1ccccn1	i
29	Cc1ccc(-n2nc3cc(C)c(NC(=O)COc4cccc(C)c4)cc3n2)cc1	i
30	COc1ccc(OC)c(NC(=O)c2ccccc2NS(=O)(=O)c2cccc3cccnc23)c1	i

# Later entries.
no.	Structure	ID4 SMM
31	O=C(COc1ccc2ccccc2c1Br)Nc1cccnc1	i
32	CCc1nc(SCC(=O)Nc2ccnc3ccccc23)n[nH]1	i
33	COc1ccccc1NC(=O)Cn1cnc2sc3c(c2c1=O)CCC(C)C3 (stereo not drawn)	i
34	COc1cc(NC(=O)COc2cc(C)cc(C)c2C)c(OC)cc1Cl	i
35	Cc1nn(C(=O)c2ccc(Cl)cc2)c(C)c1Sc1nnc(C(F)(F)F)n1C	i
36	Cc1cc(=O)n2c3ccccc3n(CC(O)CN3CCN(CCO)CC3)c2c1C#N (stereo not drawn)	i
37	COCCNC(=O)c1c(NC(=O)c2nc(SC)ncc2Cl)sc2c1CCCC2	i
38	Cc1cc2c(cc1C)C(=O)C(c1ccccc1)=C(NCc1ccccc1)C2=O	i
39	N#Cc1ccc(/C=C/C(=O)NCc2ccccc2)cc1	i
40	C[C@@H](NC(=O)C[C@H]1C=C[C@H](NC(=O)Cc2ccccn2)[C@H](CO)O1)c1ccccc1	i
41	Cc1cc2oc(=O)cc(CN(C)Cc3ccccc3)c2cc1C(C)C	i
42	CC(=O)OC/C=C(\CO)CC/C=C(\C)CC/C=C(\CC/C=C(\C)COC(C)=O)C(=O)O	i
43	O=C(COc1ccc(Br)cc1)Nc1ccc2oc(-c3ccc(F)cc3)nc2c1	i
44	O=C(OCc1ccccc1)Oc1cncc(C(=O)O)c1	i
45	Cc1ccc(NC(=O)CN(c2ccc(C)c(Cl)c2)S(C)(=O)=O)c(C)c1	i

# (more compounds)
no.	Structure	ID4 SMM
46	CNC[C@@H]1Oc2cc(Br)ccc2S(=O)(=O)N([C@@H](C)CO)C[C@H]1C	i
47	COCC#Cc1cnc2c(c1)C(=O)N([C@@H](C)CO)C[C@@H](C)[C@H](CN(C)Cc1ccc(F)cc1)O2	i
48	C[C@H](CO)N1C[C@H](C)[C@H](CN(C)Cc2cccnc2)Oc2ncc(-c3ccc(F)cc3)cc2C1=O	i
49	COC(=O)c1c(NC(=O)c2ccc(N(C)S(=O)(=O)c3ccc(C)cc3)cc2)sc2c1CCCC2	i
50	O=C(CSc1nc(-c2ccc(Cl)cc2)cc(C(F)(F)F)n1)c1ccccc1	i
51	O=C(CSc1nc2ncccc2[nH]1)NCc1ccccc1	i
52	N#Cc1c(NC(=O)Cn2cnc3ccccc3c2=O)oc(-c2ccccc2)c1-c1ccccc1	i
53	O=C1c2ccccc2C(=O)N1CCc1nc(-c2ccccn2)no1	i
54	O=C(NCc1ccccn1)c1nn2c(C(F)(F)F)cc(-c3ccccc3)nc2c1Cl	i
55	Cc1cc(S(=O)(=O)Nc2c(C)nc3nc[nH]n3c2=O)ccc1F	i
56	CC(C)(C)c1ccccc1NC(=O)c1cccc(Cn2cc(Cl)cn2)c1	i
57	O=C(COc1ccc(Cl)cc1)Nc1cccc(-c2nc3ncccc3o2)c1	i
58	Cc1noc(C)c1NC(=O)N[C@@H]1CC[C@@H](CC(=O)N2CCCCC2)O[C@@H]1CO	i
59	C[C@@H]1CN([C@H](C)CO)C(=O)c2cc(/C=C/c3ccccc3)cnc2O[C@H]1CN(C)Cc1ccncc1	i
60	COC(=O)c1ccc(C2C(C(=O)Nc3cc(OC)c(Cl)cc3OC)=C(C)Nc3ncnn32)cc1 (stereo not drawn)	i

# (cont.)
no.	Structure	ID4 SMM
61	O=C(COc1ccc(Br)cc1Cl)Nc1ccccc1[N+](=O)[O-]	i
62	CC(=O)c1cccc(NC(=O)CNS(=O)(=O)c2ccc(Br)cc2)c1	i
63	COc1cccc(-c2cc(C(=O)NCc3ccco3)c3cc(C)cc(C)c3n2)c1	i
64	Cc1nc(C(F)(F)F)nc(Sc2cccc(C(F)(F)F)c2)c1C	i
65	C[C@H]1CN([C@@H](C)CO)C(=O)c2cc(C3=CCCC3)cnc2O[C@@H]1CN(C)C(=O)C1CCC1	i
66	CCn1c(SCC(=O)N2CCc3ccccc32)nnc1-c1ccccc1O	i
67	CC(=O)Nc1ccc(NC(=O)CS(=O)(=O)Cc2ccccc2)cc1	i
68	C[C@H](CO)N1C[C@H](C)[C@H](CN(C)C(=O)C2CC2)Oc2ncc(/C=C/c3ccccc3)cc2C1=O	i
69	C[C@H](O)C#Cc1cnc2c(c1)C(=O)N([C@@H](C)CO)C[C@H](C)[C@H](CN(C)C(=O)Nc1ccc(F)cc1)O2	i
70	CCCC#Cc1ccc2c(c1)O[C@H](CN(C)CCC)[C@H](C)CN([C@H](C)CO)S2(=O)=O	i
71	C[C@@H]1CN([C@H](C)CO)C(=O)c2cc(C3=CCCC3)cnc2O[C@H]1CN(C)C(=O)c1ccccc1	i
72	CC(NS(=O)(=O)c1ccc(Cl)cc1)C(=O)Nc1ccccc1C(F)(F)F (stereo not drawn)	i
73	O=C(C[C@H]1C=C[C@@H](NC(=O)c2ccncc2)[C@@H](CO)O1)NCCc1ccncc1	i
74	C[C@@H]1CN([C@H](C)CO)S(=O)(=O)c2ccc(/C=C/c3ccccc3)cc2O[C@H]1CN(C)C(=O)CN1CCOCC1	i
75	Cc1cc(=O)[nH]c(SCc2cn3c(C)cc(C)nc3n2)n1	i

# Carrying on.
no.	Structure	ID4 SMM
76	C[C@H]1CN([C@@H](C)CO)S(=O)(=O)c2ccc(-c3ccc(C(=O)N(C)C)cc3)cc2O[C@@H]1CN(C)Cc1ccccc1C(=O)O	i
77	O=C1CCc2cc(OCc3ccc(Cl)cc3)ccc2O1	i
78	COc1cc(C2NC(=S)NC(c3ccccc3)=C2C(C)=O)cc(Cl)c1OCC(=O)O (stereo not drawn)	i
79	c1ccc(-c2nsc(NC3Cc4ccccc4C3)n2)cc1	i
80	CN(C)CCCN1C(=O)[C@@]2(Cc3ccccc31)c1ccccc1C(=O)N(Cc1ccccc1Cl)[C@H]2c1ccc(CO)cc1	i
81	Fc1ccc(-c2cn3cccc(OCc4ccc(Cl)c(Cl)c4)c3n2)cc1	i
82	COc1ccc(NC(=O)N[C@@H]2CC[C@H](CC(=O)NCc3ccccn3)O[C@@H]2CO)cc1	i
83	Cc1ccc2c(c1)c(-c1ccccc1)c(-c1ccccc1)n2CC(O)Cn1c(C)cc(C)nc1=O (stereo not drawn)	i
84	Cc1ccc(S(=O)(=O)NCCN2CCOCC2)cc1-c1nnc2c3ccccc3c(C)nn12	i
85	CC(=O)N(C)C[C@@H]1Oc2ncc(-c3ccccc3C)cc2C(=O)N([C@@H](C)CO)C[C@H]1C	i
86	COc1ccccc1NC(=O)CSc1nc(C)cc(-c2ccccc2)n1	i
87	COc1ccc(-c2noc(CSc3nc4ccccc4c(=O)n3-c3ccccc3)n2)cc1OC	i
88	Cc1cc2ncn(CC(O)COc3ccc(C(C)C)cc3)c2cc1C (stereo not drawn)	i
89	CCCn1c2ccccc2c2nnc(SCCN3CCCCC3)nc21	+
90	COc1cccc(-c2ccc3c(c2)O[C@@H](CN(C)C)[C@@H](C)CN([C@@H](C)CO)S3(=O)=O)c1	i

# Following part
no.	Structure	ID4 SMM
91	NC(=O)c1ccc(NC(=O)CNS(=O)(=O)c2cc(Cl)ccc2Cl)cc1	i
92	C[C@H](CO)N1C[C@H](C)[C@H](CN(C)Cc2cccnc2)Oc2ncc(-c3ccccc3)cc2C1=O	i
93	Cn1c(NCc2ccco2)nc2c1c(=O)n(Cc1cccc(Br)c1)c(=O)n2C	i
94	C/C=C/c1ccc2c(c1)O[C@H](CN(C)Cc1ccc(F)cc1)[C@@H](C)CN([C@@H](C)CO)S2(=O)=O	i
95	COc1ccc(NC(=O)N(C)C[C@@H]2Oc3cc(-c4cccc(C(=O)N(C)C)c4)ccc3S(=O)(=O)N([C@@H](C)CO)C[C@@H]2C)cc1	i
96	CCc1ccc(CCC(=O)Nc2cc(Cl)ccc2Cl)o1	i
97	CSc1ccccc1NC(=O)CN(c1cccc(Cl)c1Cl)S(C)(=O)=O	i
98	C[C@@H]1CN([C@H](C)CO)C(=O)c2cc(-c3ccc(F)cc3)cnc2O[C@@H]1CN(C)Cc1ccc(C(=O)O)cc1	i
99	C#CCN1C(=O)C(O)(CC(=O)c2ccc(C)o2)c2ccccc21 (stereo not drawn)	i
100	O=C(CN1CCOCC1)Nc1sc2c(c1C(=O)Nc1ccc(Br)cc1)CCCC2	i
101	O=C(C[C@@H]1C=C[C@H](NC(=O)Cc2ccccn2)[C@H](CO)O1)NCCCN1CCOCC1	i
102	CC(=O)c1cccc(N(CC(=O)N2CCN(c3ccccc3F)CC2)S(C)(=O)=O)c1	i
103	N#C/C(N)=C(\C#N)N=Cc1ccc(C#N)cc1	i
104	CN(C)C(=O)C[C@H]1C=C[C@@H](NC(=O)C2CC2)[C@@H](CO)O1	i
105	COc1ccc(OC)c(NC(=O)CN(c2ccc(Br)c(C)c2)S(C)(=O)=O)c1	i

# Compounds shown so far that contain a cyano group (four):
no.	Structure	ID4 SMM
36	Cc1cc(=O)n2c3ccccc3n(CC(O)CN3CCN(CCO)CC3)c2c1C#N (stereo not drawn)	i
39	N#Cc1ccc(/C=C/C(=O)NCc2ccccc2)cc1	i
52	N#Cc1c(NC(=O)Cn2cnc3ccccc3c2=O)oc(-c2ccccc2)c1-c1ccccc1	i
103	N#C/C(N)=C(\C#N)N=Cc1ccc(C#N)cc1	i

# Next part.
no.	Structure	ID4 SMM
106	COc1ccccc1-c1cnc2c(c1)C(=O)N([C@@H](C)CO)C[C@H](C)[C@@H](CN(C)Cc1cccnc1)O2	i
107	C[C@H](CO)N1C[C@H](C)[C@H](CN(C)C)Oc2ncc(-c3ccccc3F)cc2C1=O	i
108	C/C=C/c1ccc2c(c1)O[C@H](CNC)[C@@H](C)CN([C@H](C)CO)S2(=O)=O	i
109	COC(=O)CN(c1ccc(C)cc1)S(=O)(=O)c1ccccc1	i
110	CCc1c(C)nc(SCC(=O)Nc2ccc(C(=O)OC)cc2)[nH]c1=O	i
111	COc1ccc(NC=O)c(CS(=O)(=O)c2ccc(C)cc2)n1	i
112	COC(=O)c1ccc(NC(=O)CN(c2ccc(C)c(Cl)c2)S(C)(=O)=O)cc1	i
113	CCc1ccc(OCC(=O)Nc2ccc(-c3nc4ccccc4s3)c(O)c2)cc1	i
114	O=C(CSc1nc2ccccc2c(=O)[nH]1)Nc1ccc(F)c(Cl)c1	i

# Only part of the results is shown; rates above refer to the full screens.
